Compound activity as filed in PubChem.
Sfp inh = inhibitors of Bacillus subtilis Sfp phosphopantetheinyl transferase | Q9F4F7 | Biochemical Sfp PPTase activity, qHTS | Potency, µM, for the others: max response, negative = inhibition, actives largely listed as inhibitors | 3.5% of 310,000 active | AID 1490; active = well fitted inhibition curve with a large enough effect; inconclusive = small, poorly fitted or top-dose-only effect, or another doubt; inactive = no such curve, though single readings can be large or run the other way;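 also: the enzyme is Sfp with the accession as filed and its product quenches rhodamine fluorescence; potency is read from the fitted curve at half-maximal effect; 0% = enzyme reaction without inhibitor and -100% = no enzyme wells; top concentration of the series not given in the record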
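After 15 min at room temperature with compound, 15 nM Sfp received 5 uM rhodamine-CoA plus 12.5 uM BHQ-2-ybbR (50 mM Hepes pH 7.6, 10 mM MgCl2). Rate came from the fluorescence difference over 30 min, ex 525/em 598 nm.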
gsp antagonist = antagonists of gsp mutant (McCune-Albright syndrome) | gsp-mutant cells, cAMP HTRF, 30 min; control for the full effect not named in the record | Potency, µM (doses to about 76.9 µM), without a hit: at the top dose activity change, negative = inhibition, usual class: inhibitors | 0.4% of 340,000 active; active = falling curve of any shape with a large fitted effect; inconclusive = falling curve, mostly with a smaller effect; inactive = flat or rising curve; cell line not stated here;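 also: intracellular cAMP measured with PDE inhibitor Ro 20-1724 present during compound exposure; potency is read from the fitted curve at half-maximal effect; % is scaled to controls: 0 for no effect and ±100 for the full control effect; nearly all actives have a fitted effect of over 65% in size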
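HTRF cAMP read-out (cAMP-d2 plus anti-cAMP antibody-K in lysis buffer, 30 min RT). Before lysis, cells are exposed to compounds with […] for 30 min at 37C in DPBS containing Ca/Mg, BSA and Tween 20.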
TRPV1 PAM = human TRPV1 potentiation; TRPV1-expressing cells, Fluo-8 calcium influx, capsaicin EC20 potentiation; host cell line not named in the record; control for the full effect not named in the record; potentiation, % at 8.33 µM; 0.02% of 320,000 active; AID 540277; active means potentiation above 80%; inconclusive means 30% to 80%; inactive means below 30%; also: 0% is about no effect
Target sequence (Q8NER1 whole entry, looked up): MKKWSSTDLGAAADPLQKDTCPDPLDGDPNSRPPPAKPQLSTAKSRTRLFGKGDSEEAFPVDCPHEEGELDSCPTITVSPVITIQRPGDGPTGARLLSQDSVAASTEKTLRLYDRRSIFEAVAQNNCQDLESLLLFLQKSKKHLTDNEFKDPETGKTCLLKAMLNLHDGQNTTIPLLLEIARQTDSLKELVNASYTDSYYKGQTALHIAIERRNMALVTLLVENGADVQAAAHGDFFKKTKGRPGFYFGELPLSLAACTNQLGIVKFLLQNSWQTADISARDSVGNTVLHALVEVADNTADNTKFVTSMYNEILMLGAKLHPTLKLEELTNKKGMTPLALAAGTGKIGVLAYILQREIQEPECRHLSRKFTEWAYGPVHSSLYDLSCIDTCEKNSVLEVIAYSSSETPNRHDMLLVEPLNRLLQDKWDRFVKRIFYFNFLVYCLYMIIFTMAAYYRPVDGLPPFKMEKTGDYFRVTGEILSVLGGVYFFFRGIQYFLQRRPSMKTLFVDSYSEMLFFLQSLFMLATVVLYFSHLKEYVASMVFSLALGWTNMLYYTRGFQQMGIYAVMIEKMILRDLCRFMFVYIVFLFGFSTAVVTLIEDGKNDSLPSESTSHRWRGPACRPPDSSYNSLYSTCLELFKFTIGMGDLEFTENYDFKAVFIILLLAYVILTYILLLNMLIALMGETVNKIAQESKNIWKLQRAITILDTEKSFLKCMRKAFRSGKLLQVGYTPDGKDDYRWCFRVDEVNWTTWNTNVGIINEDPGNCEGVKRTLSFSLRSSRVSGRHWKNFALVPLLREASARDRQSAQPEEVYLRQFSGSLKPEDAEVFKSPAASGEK
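TRPV1-expressing cells were cultured overnight at 35.5C and loaded with Fluo-8 calcium dye for 40 to 90 min at room temperature. After a 10 s baseline, compound was added and calcium influx was read kinetically for 3 min (ex 480/em 520 nm).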
ClpP mod = qHTS Assay for Activators of ClpP; ATP-dependent Clp protease proteolytic subunit (Bacillus subtilis (strain 168)), P80244; purified B. subtilis ClpP, FRET peptide cleavage, 20 min; Potency, µM (series often up to 57.5 µM), without a hit: at the top dose activity change, negative = active; 1.9% of 340,000 active; AID 651965, 2013; active = well fitted falling curve with a large enough effect; inconclusive = small, poorly fitted or top-dose-only effect; inactive = no such curve, though single readings can be large or run the other way; also: potency is read from the fitted curve at half-maximal effect; the source files actives as falling curves though it sought activators and does not explain the sign; nearly all actives have a fitted effect of over 65% in size; many hits overshoot -100%
Target sequence (P80244 whole entry, looked up): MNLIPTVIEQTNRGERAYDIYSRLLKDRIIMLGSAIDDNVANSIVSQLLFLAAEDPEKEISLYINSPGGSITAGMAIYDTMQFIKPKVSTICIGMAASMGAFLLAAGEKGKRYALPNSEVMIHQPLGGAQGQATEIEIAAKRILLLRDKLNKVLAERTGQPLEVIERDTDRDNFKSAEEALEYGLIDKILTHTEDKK
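ClpP 10 microg/mL final, pH 8 Tris/KCl buffer with BSA, glycerol, Tween-20; compound pinned in; FRET-FV substrate; RT 20 min; Ex320/Em430; ΔFRET vs ADEP 5.8 microM, DMSO, no enzyme.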
CtBP-E1A blk = blocks the CtBP interaction with E1A; AlphaScreen GST-E1A/His-CtBP binding, 1536-well; active compounds read low; control for the full effect not named in the record; activity change, % (test concentration not listed); 0.49% of 340,000 active; AID 651724; in the data active means activity change below about -65%; inconclusive means about -30% to -65%; inactive means above about -30%; also: % is scaled to controls: 0 for no effect and ±100 for the full control effect
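Protein mix (5X: 125 nM each GST-E1A, His-CtBP) was incubated with pinned compound 2 h at 37 deg C in dark, in 50 mM Tris pH 8.0 buffer with 300 mM NaCl. Glutathione donor and nickel acceptor beads followed; AlphaScreen signal read after 1 h.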
Menin MLL FP FL = displaces fluorescein MLL peptide from human menin. Fluorescence polarization, fluorescein-MLL peptide displacement from menin. FP activity change, % at 61.4 µM. 290,000 tested, under 10 active. AID 1766; inconclusive = falling polarisation curve, or a change in total fluorescence; inactive = total fluorescence flat and polarisation flat or rising; no compound was filed as active; the % refers to the polarisation; negative = inhibition;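 also: % of control where 0% means no effect; inhibitors lower the polarisation; unlabelled MLL peptide was the positive control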
gsp agonist = agonists of gsp mutant (McCune-Albright syndrome); AID 624287; Potency, µM (titrated, usually from 76.9 µM), inactives show top-dose activation (cAMP increase), hits mostly activators; 0.13% of 340,000 active; gsp mutant cells, cAMP HTRF, 30 min; control for the full effect not named in the record; active = well fitted activation curve with a large enough effect; inconclusive = small, poorly fitted or top-dose-only effect, or another doubt; inactive = no such curve, though single readings can be large or run the other way; cell line not stated here;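 also: phosphodiesterase inhibitor Ro 20-1724 added with compounds to block cAMP breakdown; potency is read from the fitted curve at half-maximal effect; nearly all actives have a fitted effect of over 60% in size; about a fifth of the inactives were tested at one dose only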
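Cells stably selected in G418 were plated at 2000/well, grown 16-24 hr, then given compounds in DMSO with the PDE inhibitor […] (300 uM solution added) for 30 min at 37C; cAMP was read by HTRF.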
An asterisk follows results filed as active; ? = inconclusive; nt = not tested or not shown; [ ] = remark or other dose.

nr	Molecule	Sfp inh	gsp antagonist	TRPV1 PAM	ClpP mod	CtBP-E1A blk	Menin MLL FP FL	gsp agonist
1	CCOc1ccc2nc(NC3=NC(C)(C)C=C(C)N3)nc(C)c2c1	-3%	10%	9	-4.1%	-10	-1.4	9%
2	Cc1nc(NS(=O)(=O)c2ccc(Br)cc2)c2c3c(sc2n1)CCC3	2%	-15%	3	-1.4%	-3	-7.9	2%
3	COc1ccc(NC(=O)CN(C)C(=O)/C=C/c2cn(-c3ccccc3)nc2-c2cccs2)cc1	nt	-14%	13	?	1	nt	-37%[inhibitor]
4	Cc1cc(NC(=O)c2ccc3c(c2)C(=O)N(Cc2ccccc2)C3=O)no1	6%	14%	3	nt	4	1.6	-12%[15.4 µM]
5	C[C@@H]1CCCCO[C@@H](CN(C)C(=O)Nc2ccccc2)[C@@H](C)CN([C@H](C)CO)C(=O)c2cc(N(C)C)ccc2O1	nt	nt	nt	-2.2%	2	nt	14µM*
6	O=C(CSc1nc(=O)n(CCCN2CCOCC2)c2c1CCC2)Nc1ccc(F)cc1	nt	-14%	2	-2.5%	-3	nt	-4%
7	O=C1CCCN1c1ccc(S(=O)(=O)N2CCCCC2)cc1[N+](=O)[O-]	23%	10%	-2	nt	0	-0.8	-2%[15.4 µM]
8	COc1ccc(S(=O)(=O)NCCSc2ccc(C)cc2)cc1OC	-8%	-15%	-9	?	-1	0.3	-3%
9	COc1ccc(CN(C)C(=O)C23CC4CC(CC(Cl)(C4)C2)C3)c(OC)c1OC	-7%	?	-4	nt	-10	-1.6	-25%[15.4 µM]
10	COc1ccc(CCNC(=O)CCCc2ccccc2)cc1	17%	-1%	-35	nt	-1	1.0	-15%
11	COc1ccc(Cl)cc1NC(=O)COC(=O)c1c(-c2ccccc2)noc1C	nt	?	-5	-0.8%	nt	nt	3%
12	CC(C)CCC(CCNCc1ccccn1)c1ccc(Cl)cc1 (configuration not stated)	?	3%	-9	nt	0	-7.9	16%

Grouped by structure, the compounds so far with a thiophene ring, fused or not
nr	Molecule	Sfp inh	gsp antagonist	TRPV1 PAM	ClpP mod	CtBP-E1A blk	Menin MLL FP FL	gsp agonist
2	Cc1nc(NS(=O)(=O)c2ccc(Br)cc2)c2c3c(sc2n1)CCC3	2%	-15%	3	-1.4%	-3	-7.9	2%
3	COc1ccc(NC(=O)CN(C)C(=O)/C=C/c2cn(-c3ccccc3)nc2-c2cccs2)cc1	nt	-14%	13	?	1	nt	-37%[inhibitor]

Next section
nr	Molecule	Sfp inh	gsp antagonist	TRPV1 PAM	ClpP mod	CtBP-E1A blk	Menin MLL FP FL	gsp agonist
13	N#Cc1ccc(NC(=O)c2cc(S(=O)(=O)N3CCOCC3)ccc2N2CCCC2)cc1	nt	-18%	-14	1.5%	5	nt	-9%[15.4 µM]
14	COc1ccc(NC(=O)Cn2nnc3ccccc32)c([N+](=O)[O-])c1	14%	-9%	8	nt	0	2.0	0%[15.4 µM]
15	C=C(C)Cn1c(-c2ccccc2)nc2ccccc21	-1%	-21%	20	?	-7	1.0	2%
16	Cc1ccc(CN2C(=O)CSC2c2cccnc2)cc1 (configuration not stated)	9%	2%	0	-0.1%	-1	0.1	0%[15.4 µM]
17	Cc1ccc(C)c(Nc2nc(-c3ccncc3)nc3ccccc23)c1	-11%	-21%	-34	-0.4%	nt	0.2	-1%
18	COCCSc1nc2sc3c(c2c(=O)n1-c1ccccc1)CCN(C)C3	-19%	2%	2	?	-3	1.2	-19%
19	COc1cccc(N2CCN(C(=O)CCNS(=O)(=O)c3ccc4c(c3)c(=O)n(C)c(=O)n4C)CC2)c1	16%	-7%	22	nt	-24	0.0	15%
20	CC(=O)N1N=C(c2ccccc2OC(=O)/C=C/c2ccccc2)CC1c1ccccc1 (configuration not stated)	3%	-22%	6	0.8%	-80*	-0.8	-7%[15.4 µM]
21	O=C(N/N=C/c1ccncc1)c1cc2c(ccc3ccccc32)o1	5%	0%	-5	?	-8	3.3	25%
22	CCCN(C(=O)c1ccc(N2CCCC2=O)cc1)C1CCS(=O)(=O)C1 (configuration not stated)	nt	14%	4	-5.0%	4	nt	12%
23	CCOc1cc(S(=O)(=O)Nc2ccccc2CC)ccc1Cl	-23%	-11%	-14	0.3%	6	1.7	-39%[inhibitor]
24	Cc1cccc(N/C(N)=N/c2nc(C(F)(F)F)cc(C(F)(F)F)n2)c1	15%	8%	-1	2.1%	10	-1.5	-3%

(cont.)
nr	Molecule	Sfp inh	gsp antagonist	TRPV1 PAM	ClpP mod	CtBP-E1A blk	Menin MLL FP FL	gsp agonist
25	C/C(=N\NC(=O)CSCc1ccccc1Cl)c1cccc(NC(=O)c2ccccc2)c1	22%	?	27	14%	-2	6.5	0%
26	Cc1cc(C)n2nc(SCC(=O)N/N=C/c3ccc(F)cc3)nc2n1	9%	0%	-11	-2.2%	-12	8.5	?
27	Cc1cccc(-[n+]2c(C)cc(C)c3c(=O)[nH]c(=O)[nH]c32)c1	2%	4%	-9	-13%	-1	6.7	-29%
28	CCc1ccc(CNC(=O)C2CCN(S(=O)(=O)N3CCC(C)CC3)CC2)cc1	9%	-8%	0	2.3%	nt	-3.1	-24%
29	O=C1CN(C(=O)CNCc2ccccc2Cl)c2ccccc2N1	?	5%	4	nt	-1	2.6	3%[15.4 µM]
30	CCn1nc(C)c(/C=C2\CCCC3=C2OC(N)=C(C#N)C3c2c(C)nn(CC)c2C)c1C (configuration not stated)	15%	nt	7	nt	nt	?	nt
31	NC(=O)c1nsc(C(=O)N(CC(=O)NC2CCCCC2)c2ccc(Cl)cc2)c1N	12%	-48%	8	nt	-4	-1.9	17%[15.4 µM]
32	CCn1c(CCNC(=O)c2ccc(OC)cc2)nnc1SCc1ccc(Cl)c(Cl)c1	1%	?	-17	-4.4%	-3	2.3	-1%
33	Cc1sc2nc(SCC(=O)N3CCOCC3)[nH]c(=O)c2c1-c1ccccc1	-17%	-14%	-12	-0.7%	-2	20	1%
34	COC(=O)c1ccc(NC(=O)COC(=O)COc2cccc3c2OC(C)(C)C3)cc1	nt	-5%	22	-2.7%	-6	nt	-19%
35	Cc1cc(NC(=O)c2ccc(S(=O)(=O)N(C)CC3CCCO3)cc2)no1 (configuration not stated)	16%	17%	16	nt	-4	1.7	-1%[15.4 µM]
36	COC(=O)c1cc(-c2ccc(S(=O)(=O)N3CCCCC3)cc2)c(C(F)(F)F)s1	-25%	-10%	?	1.0%	11	0.6	-13%

Quoted at random: two entries already listed.
nr	Molecule	Sfp inh	gsp antagonist	TRPV1 PAM	ClpP mod	CtBP-E1A blk	Menin MLL FP FL	gsp agonist
30	CCn1nc(C)c(/C=C2\CCCC3=C2OC(N)=C(C#N)C3c2c(C)nn(CC)c2C)c1C (configuration not stated)	15%	nt	7	nt	nt	?	nt
29	O=C1CN(C(=O)CNCc2ccccc2Cl)c2ccccc2N1	?	5%	4	nt	-1	2.6	3%[15.4 µM]

New compounds follow.
nr	Molecule	Sfp inh	gsp antagonist	TRPV1 PAM	ClpP mod	CtBP-E1A blk	Menin MLL FP FL	gsp agonist
37	CCNC(=O)C12CCC(C)(C(=O)C1Br)C2(C)C (configuration not stated)	-4%	-2%	2	-2.9%	11	-0.5	-35%[inhibitor]
38	COc1ccnc(Oc2ccccc2)c1-c1ncn[nH]1	11%	9%	3	nt	-6	-2.9	9%[15.4 µM]
39	Cc1nc(NC(=O)CN2CCN(c3cccc(Cl)c3)CC2)sc1C(=O)N(C)C	6%	-4%	1	-1.6%	nt	-3.4	-33%[inhibitor]
40	Cc1sc2ncnc(SCC(=O)N3CCOCC3)c2c1C	nt	5%	-24	-8.8%	nt	nt	-31%[inhibitor]
41	Cc1cn(C2OC(COC(=O)c3ccccc3)C(O)C2Cl)c(=O)[nH]c1=O (configuration not stated)	11%	-13%	-5	-0.5%	nt	-0.8	-14%
42	COCCNC(=S)N1CCC(C(=O)c2ccc3c(c2)OCCO3)CC1	18%	-2%	8	nt	9	-2.7	25%
43	COc1ccc(Br)cc1C1NC(=O)NC(C)=C1C(=O)N(C)C (configuration not stated)	16%	3%	4	0.3%	6	-0.5	17%
44	Cc1nnc(SCC(=O)Nc2cccc(C(F)(F)F)c2)[nH]c1=O	22%	?	18	1.1%	-3	3.9	-5%
45	COc1ccc(/C=N/Nc2cc(C)nc(-n3nc(C)cc3C)n2)cc1	-7%	-21%	6	-4.3%	-17	0.5	?
46	CCOc1ccc(C2/C(=C(/O)c3ccc4c(c3)CC(C)O4)C(=O)C(=O)N2CC2CCCO2)cc1 (configuration not stated)	1%	-5%	21	-1.1%	7	nt	?
47	CN1CCN(c2ccc(NC(=O)c3ccc(Cl)cc3Cl)cc2)CC1	22%	0%	-5	-1.2%	-2	-0.4	0%
48	CC(C)=C1Cc2ccccc2C1=O	14%	0%	-2	-1.0%	nt	4.6	3%

3 of the entries above in order of their number in gsp antagonist, high to low:
| no. | molecule | Sfp inh | gsp antagonist | CtBP-E1A blk | Menin MLL FP FL | gsp agonist |
| --- | --- | --- | --- | --- | --- | --- |
| 4 | Cc1cc(NC(=O)c2ccc3c(c2)C(=O)N(Cc2ccccc2)C3=O)no1 | 6% | 14% | 4 | 1.6 | -12%[15.4 µM] |
| 29 | O=C1CN(C(=O)CNCc2ccccc2Cl)c2ccccc2N1 | ? | 5% | -1 | 2.6 | 3%[15.4 µM] |
| 34 | COC(=O)c1ccc(NC(=O)COC(=O)COc2cccc3c2OC(C)(C)C3)cc1 | nt | -5% | -6 | nt | -19% |

Some of these compounds in order of heavy-atom count, largest number first.
nr	Molecule	Sfp inh	gsp antagonist	TRPV1 PAM	ClpP mod	CtBP-E1A blk	Menin MLL FP FL	gsp agonist
5	C[C@@H]1CCCCO[C@@H](CN(C)C(=O)Nc2ccccc2)[C@@H](C)CN([C@H](C)CO)C(=O)c2cc(N(C)C)ccc2O1	nt	nt	nt	-2.2%	2	nt	14µM*
25	C/C(=N\NC(=O)CSCc1ccccc1Cl)c1cccc(NC(=O)c2ccccc2)c1	22%	?	27	14%	-2	6.5	0%
32	CCn1c(CCNC(=O)c2ccc(OC)cc2)nnc1SCc1ccc(Cl)c(Cl)c1	1%	?	-17	-4.4%	-3	2.3	-1%
